HCMV UL50-53 inh = inhibitors of HCMV UL50-UL53 nuclear egress complex interaction; inhibition, % (test concentration not listed); 190,000 compounds, 0.15% hits; AID 1918969; HTRF UL50-UL53 interaction, normalized percent inhibition;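 active = both replicates at 50% or more, plus weaker picks with an unusually low signal ratio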;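 note: stock transfer was 100 nL into about 20 µL; 0% = negative control wells and 100% = wells with untagged competitor protein; inactives centre near -12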
GIV Gai3 FP = inhibitors of GIV GBA-motif binding to rat Galpha-i3; P08753; Galpha-i3/FITC-GIV peptide fluorescence polarization, 90 min; active compounds read low; scaled: aluminum fluoride 0%, vehicle 100%; 210,000 compounds, 0.42% hits; AID 1224905; percent of control (FP), % (no concentration beside the values);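 active = replicate mean at 85% of control or lower, very high polarization wells dropped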;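 note: wells of about 15 µL received 100 nL stock; the first replicate is given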
Target sequence (P08753 whole entry, looked up): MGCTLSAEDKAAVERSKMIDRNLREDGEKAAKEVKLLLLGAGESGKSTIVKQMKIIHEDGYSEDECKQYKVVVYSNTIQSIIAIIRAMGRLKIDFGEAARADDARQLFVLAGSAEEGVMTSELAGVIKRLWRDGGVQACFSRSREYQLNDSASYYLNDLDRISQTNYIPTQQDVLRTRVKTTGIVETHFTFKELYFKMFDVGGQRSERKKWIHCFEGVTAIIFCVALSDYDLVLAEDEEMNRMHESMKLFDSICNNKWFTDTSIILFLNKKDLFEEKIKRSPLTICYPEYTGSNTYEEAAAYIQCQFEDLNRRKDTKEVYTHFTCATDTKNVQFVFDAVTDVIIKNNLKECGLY
Sa growth 42C = S. aureus growth inhibition | S. aureus RN4220 growth, OD600, 20 h, 42 °C; active compounds read low | AID 720641 | relative growth, % (test concentration not listed) | 170,000 compounds, 0.53% hits;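 active = growth at 42 °C up to 50% and 20 or more points under that at 30 °C, or under 10% at both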;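 note: 300 nL library stock went into each well; scaled to the means of positive and negative controls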
Sa growth 42C second temp = recorded beside Sa growth 42C, whose call it bears; relative growth, %; measured here: growth at 30 °C;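 optical density after 20 h as mean of two plates; 100% = untreated growth and lower means inhibition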
* hit, by the source's call; . = not tested or not shown; & = joins results of further samples. This is a random part of the collection; about 0.82% have a hit in one of these screens.

structure	Sa growth 42C	Sa growth 42C second temp	GIV Gai3 FP	HCMV UL50-53 inh
CCOc1ccc(Cl)cc1CNCCCSc1nnnn1C	109	83	103	-24
Cn1nnnc1SCCCNCc1ccccc1OCc1ccc(Cl)cc1	109	69	104	-7
Cc1ccc(-c2ccc(=O)n(CC(=O)NCCc3ccccc3)n2)cc1	107	91	98	.
CC1CCC2(CC1)NCCN=C2NC1CCCCCC1 (stereo not drawn)	.	.	101	4
CCOC(=O)c1c(C)sc2c3c([nH]c12)CCCC3	85	69	109	.
N[C@H]1CONC1=O	.	.	98	-29&-59&-26
O=C1N=C(N2CCN(c3ccccc3)CC2)SC1Cc1ccccc1 (stereo not drawn)	94	79	101	-39
O=C(NC1CCN(Cc2ccccc2Cl)CC1)c1ccccc1	106	96	108	-1
CCN(C(=O)c1c(C)oc2ncn(CC(C)C)c(=O)c12)c1cccc(Cl)c1	89	97	106	.
CCN(CC)CCn1c(OC)cc(=O)[nH]c1=O	102	86	103	-8
O=C(c1ccc(F)cc1F)C1CCN(S(=O)(=O)c2ccc(F)cc2F)CC1	104	100	108	3
COC(=O)C1=C(O)c2ccccc2S(=O)(=O)N1	75	65	.	-33
COC(=O)c1ccc(Nc2nc(-c3ccc(C)cc3)nc3ccccc23)cc1	90	71	102	-6
CC(=O)Nc1ccc(S(=O)(=O)N2CCCC2c2ccc(Cl)cc2)cc1 (stereo not drawn)	.	.	99	-23
Nc1ccccc1SCC(O)COc1cccc(C(F)(F)F)n1 (stereo not drawn)	75	90	97	-24

Next section.
structure	Sa growth 42C	Sa growth 42C second temp	GIV Gai3 FP	HCMV UL50-53 inh
CCOc1cccc2cc(-c3nnc(Nc4ccc(F)c(Cl)c4)s3)c(=O)oc12	76	92	105	.
Cc1ccc(C2C(C#N)=C(N)SC(N)=C2C#N)c(C)c1	93	52	8.5*	-25
COc1ccc(C(=O)c2c(C)c3ccccc3n2CC(O)CNC(C)C)cc1 (stereo not drawn)	84	84	96	-32
CCOc1ccccc1NC(=O)CCCc1nc(-c2ccccc2Cl)no1	85	72	99	-1
COc1ccc(Nc2ssc(=O)c2Cl)cc1OC	81	92	.	-3
CC(C)Nc1nc(N(C)C)nc2c1cnn2C	.	.	100	-11
CN(CC(=O)Nc1ccccc1Br)c1ncnc2sccc12	101	92	.	-14
O=C1C(O)=C(S(=O)(=O)c2ccccc2)C(c2ccc(Cl)cc2)N1Cc1ccc2c(c1)OCO2 (stereo not drawn)	.	.	101	-18
Cc1c(C(=O)O)oc2c1C(=O)CCC2	97	87	103&106	-12
CCOc1ccc(NC(=O)CCc2c(C)nc3c4c(C)cc(C)nc4nn3c2C)cc1	91	102	104	14
CC1(C)CC(=O)N(CC(=O)Nc2ccc3c(c2)OCCO3)c2ccccc2S1(=O)=O	96	98	103	4
Cc1ccc(CCNC(=O)c2cc3c(=O)[nH]c4ccc(C)cc4c3s2)cc1	94	86	117	.
CC1CSc2ccc(S(=O)(=O)N3CCCC3)cc2N(CC(=O)N2CCCc3ccccc32)C1=O (stereo not drawn)	.	.	104	-2
Cc1ccc(NC(=O)c2ccc3nnc(SCC(=O)Nc4ccc5c(c4)OCCO5)n3c2)cc1	.	.	99	-22
CCN(Cc1nc2ccccc2c(=O)[nH]1)C(=O)Nc1ccc(Cl)cc1	89	88	.	-3

The results go on:
structure	Sa growth 42C	Sa growth 42C second temp	GIV Gai3 FP	HCMV UL50-53 inh
CN(CC(=O)Nc1ccc(N2CCOCC2)cc1)CC(=O)Nc1ccc2c(c1)OCO2	100	89	.	-26
CCOc1ccc(C(=O)CSc2nc3cc(C(=O)NC4CCCC4)ccc3c(=O)n2CC2CCCO2)cc1 (stereo not drawn)	103	97	104	.
CCOC(=O)Cc1ccc(NC(=O)N2CC(CC)Oc3ccc(Cl)cc32)cc1 (stereo not drawn)	.	.	105	15
CCOc1ccc(NC(=O)[C@@H](c2ccccc2)N2Cc3ccccc3C2=O)cc1	105	84	104	-27
COCCn1c(COc2cccc(OC)c2)nnc1SCC(=O)NC1CCCC1	99	90	98	-8
Cc1ccccc1-c1nnc(CN2CCCC2)o1	113	86	107	.
COC(=O)c1cc(NC(=O)c2oc(=O)c3ccccc3c2-c2ccc(C)cc2)cc(C(=O)OC)c1	109	97	94	4
CCc1ccc2oc(C(=O)Nc3nonc3CC)c(C)c2c1	83	84	97	-25
O=C(O)c1cccc(-c2ccc(/C=C3\Sc4ccccc4C3=O)o2)c1	64	41	-73*	-86
O=C(Nc1ccc2nc(NC(=O)c3ccc(Br)cc3)sc2c1)c1ccc(Br)cc1	.	.	98	-21
C=CCOc1ccc(C2Nc3ccccc3-c3nnc(SCCC)nc3O2)cc1 (stereo not drawn)	.	.	98	-12
CCOc1ccc(S(=O)(=O)NC(C)C)cc1	86	89	.	-2
Cc1cc(=O)oc2cc(NC(=O)c3ccc4c(c3)S(=O)(=O)N=C3CCCCCN34)ccc12	68	85	.	-8
CSc1sc(-c2[nH]ncc2Br)c2c1C(=O)CC(C)(C)C2	105	87	103	15
CCCn1c(N)c(C(=O)CSc2ccc3c(c2)OCCO3)c(=O)[nH]c1=O	70	64	.	-8

(continued)
structure	Sa growth 42C	Sa growth 42C second temp	GIV Gai3 FP	HCMV UL50-53 inh
C#CCOc1ccc(/C=C(/C#N)c2ccc(C(=O)O)cc2)cc1OC	102	75	112	-80
Nn1c(SCc2cc(=O)n3cc(Br)ccc3n2)nnc1C1CCCCC1	101	93	.	-32
Cc1ccc2c(c1)nnn2C1CCN(C(=O)c2ccccc2)CC1	113	72	103	-3
Cc1nonc1CC(=O)O	86	81	100	-20
COc1ccc(C(O)(C(C)C)C(CN2CCOCC2)c2ccccc2)cc1 (stereo not drawn)	.	.	106	-1
O=C(NCCc1ccc(Cl)cc1)C12CC3CC(CC(C3)C1)C2	105	95	.	-5
CC(C)c1ccc(NC(=O)c2ccc(F)c(S(=O)(=O)N3CCc4ccccc43)c2)cc1	134	92	107	.
CCCSCCCN1C(=O)c2nc3ccccc3n2CC1(C)C(=O)NC1CCC(C)CC1 (stereo not drawn)	.	.	103	-13
COc1ccc2c(c1)CCc1c-2n[nH]c1C(=O)N1CCC(N(C)CCCN2CCOCC2)CC1	.	.	98	-20
CCOc1cc(/C=C2\C(=O)NC(=O)N(c3ccc4c(c3)OCO4)C2=O)cc(Br)c1OC	.	.	104	7
CCOC(=O)c1cc2c(=O)n3ccccc3nc2n(Cc2ccco2)c1=NC(=O)c1ccc(OC)cc1	106	86	108	-39
Cc1ccc(C2=NN(C(=O)CCC(=O)O)C(c3ccc(C)cc3)C2)cc1 (stereo not drawn)	.	.	104	-19
Cc1noc(C)c1CSc1nnc(Nc2ccccc2)s1	119	100	.	12
O=C(NO)C1CC2C=CC1C2 (stereo not drawn)	82	87	.	-11
CCCCCn1c(=O)c2ccccc2n2c(Cn3nnc4ccccc4c3=O)nnc12	95	94	.	-37

New compounds follow
structure	Sa growth 42C	Sa growth 42C second temp	GIV Gai3 FP	HCMV UL50-53 inh
COc1ccc(OC(=O)c2cncc(C#Cc3ccccc3)c2)cc1	99	93	99	-14
COc1ccc(CNC(=O)c2cc(C)nc3ccccc23)cc1	.	.	107	-14
Cc1cc(C)cc(NC(=O)c2cccc(N3CCCS3(=O)=O)c2)c1	85	96	103	.
Cc1cc(C)n2ncc(C(=O)NCCC(C)C)c2n1	99	91	100&102	-16&-13
CCc1ccc(C(=O)c2cn(CC(=O)Nc3cc(OC)ccc3OC)c3ccc(Cl)cc3c2=O)cc1	106	96	105	-31
COc1ccc(C2=NN(C(=O)CCCC(=O)O)C(c3ccc(C)cc3)C2)cc1OC (stereo not drawn)	.	.	101	-69
COc1cc(OC)c(C2C3=C(CC(C)(C)CC3=O)Nc3nc4ccccc4n32)cc1OC (stereo not drawn)	95	84	101	.
COc1cc(OC)c(NC(=O)N2CCN(C(=O)Cc3csc4ccccc34)CC2)cc1Cl	.	.	97	-6
COc1ccc(NC(=O)c2ccc(CNS(=O)(=O)c3ccc4c(c3)C(C)(C)C(=O)N4C)cc2)cc1	104	90	110	.
Cc1ccc(NC(=O)Cn2c(=O)n(Cc3ccccc3)c(=O)c3sc4ccccc4c32)cc1	104	91	104	-1
CCOC(=O)c1cnc2c(c(C)nn2C)c1Sc1ccccn1	96	75	100	5
COc1ccccc1CCC(=O)NCc1ccccc1	97	95	.	-29
CN(CC(=O)NC(=O)Nc1ccc2c(c1)OCCO2)Cc1ccc2c(c1)OCCO2	96	100	.	-36
CCn1nc(-c2ccccc2)c(-c2ccccc2)c(C(=O)Nc2ccccc2C#N)c1=O	96	81	100	-32
O=C(CSc1nnc(Cc2cccs2)n1C1CC1)Nc1ccc2c(c1)OCO2	98	86	.	-27

Structures shown so far that have a cyano group:
structure	Sa growth 42C	Sa growth 42C second temp	GIV Gai3 FP	HCMV UL50-53 inh
Cc1ccc(C2C(C#N)=C(N)SC(N)=C2C#N)c(C)c1	93	52	8.5*	-25
C#CCOc1ccc(/C=C(/C#N)c2ccc(C(=O)O)cc2)cc1OC	102	75	112	-80
CCn1nc(-c2ccccc2)c(-c2ccccc2)c(C(=O)Nc2ccccc2C#N)c1=O	96	81	100	-32

Continuation:
structure	Sa growth 42C	Sa growth 42C second temp	GIV Gai3 FP	HCMV UL50-53 inh
O=C(C[n+]1ccc(/C=N/O)cc1)NC1CCCCC1	90	91	100	.
CC1C(=O)N(c2ccccc2)C(c2ccc(Br)cc2)S1(=O)=O (stereo not drawn)	.	.	103	-20
Cc1ccc(C)c(NC(=O)C(=O)NCCc2csc3nc(-c4ccccc4C)nn23)c1	88	68	109	.
Cc1ccc(COC2CN(C(=O)CC3CCCC3)C2)cc1	.	.	99	-16
O=S(=O)(c1cc(Cl)sc1Cl)N1CCCN(CCc2ccccc2)CC1	108	90	105	-12
NC(=O)Cn1c(=O)cnc2ccccc21	76	93	.	-45
O=C(NCc1ccco1)C(Sc1ccccc1)c1ccccc1 (stereo not drawn)	98	89	105	-24
O=C1S/C(=C/c2ccccc2)C(=O)N1CCOc1ccccc1	86	94	.	2
O=c1c2ccccc2nc2c3ccccc3c(NCc3ccco3)nn12	106	86	96	-33
COCCOC(=O)C1=C(N)OC2=C(C(=O)CC(C)(C)C2)C1c1cccnc1 (stereo not drawn)	.	.	104	-22
Cc1cc(=O)oc2cc(OCc3ccc4c(c3)OCO4)ccc12	104	99	108	-14
O=C(NCCn1c(C(F)(F)F)nc2cccnc21)Nc1ccccc1	.	.	114	-19
COc1ccc(OCC(O)CNC(=O)C2CCN(c3nccc(C(F)(F)F)n3)CC2)cc1 (stereo not drawn)	92	92	101	-18
O=C(O)/C=C/C(=O)NCc1cccs1	116	107	102	-9
Cc1ccc(N(CC(=O)N2CCN(c3cc(C)ccc3C)CC2)S(=O)(=O)c2c(C)nn(C)c2C)cc1	84	53	98	-13

More entries:
structure	Sa growth 42C	Sa growth 42C second temp	GIV Gai3 FP	HCMV UL50-53 inh
Cn1c(=O)c(C(CC(=O)c2cc3ccccc3oc2=O)Nc2ccccc2)c(O)c2ccccc21 (stereo not drawn)	100	80	.	-51
Nc1ccc2c(c1)ncn2CCO	94	84	99	-1
COc1ccc(CNC(=O)c2cc(-c3ccccc3)nc3ccccc23)cc1	.	.	101	-15
CNC(=O)CCC(=O)N1Cc2ccccc2Oc2ncccc21	104	93	106	-34
Cc1ccc(NC(=O)C(C)Sc2nc3c(c(=O)[nH]2)CCCC3)cc1Cl (stereo not drawn)	113	81	103	-26
CC(C)(C)CC(=O)NCc1ccc(F)cc1	97	84	96	-3
N#CC(C(=O)c1cc(=O)c2cc(Cl)ccc2o1)c1ccccn1 (stereo not drawn)	94	92	.	-29
CCOc1cc(C=C2C(=O)N(C)C(=O)N(C)C2=O)ccc1OCCOc1ccc([N+](=O)[O-])cc1	.	.	103	55*
Cc1ccc(S(=O)(=O)N2CCCc3cc(NS(=O)(=O)c4cc(F)ccc4F)ccc32)cc1	125	106	106	.
CCSc1nn(CC(=O)Nc2ccccc2)c(N)c1S(=O)(=O)c1ccccc1	.	.	101	-18
CCc1nc(SC/C=C/c2ccccc2)c(C#N)cc1C	97	91	.	-2
COc1ccc(C2(C(=O)NCCc3ccccc3)CCCC2)cc1OC	95	95	102	.
Cn1c(Cc2nc(-c3cnccn3)no2)nnc1SCC(=O)Nc1ccc(Cl)cc1	92	86	105	-32
O=c1[nH]c2nonc2nc1Nc1ccccc1	65	47	110	-6
Cc1ccc(S(=O)(=O)NC2(C(F)(F)F)C(=O)Nc3c2c(=O)[nH]c(=O)n3-c2ccccc2)cc1 (stereo not drawn)	103	100	104	9
CCC(Sc1nncn2c1cc1oc(C)cc12)C(=O)NCc1ccc(C)cc1 (stereo not drawn)	78	62	104	.
O=C(Nc1ccc2c(c1)OCCO2)N1CCC(c2nc(-c3ccc(F)cc3)no2)CC1	.	.	101	-18
CCOC(=O)c1c(NC(=O)c2cc(=O)c3cc(Cl)ccc3o2)sc(C)c1C	98	87	99	-17

Structures above marked active in GIV Gai3 FP:
SMILES,Sa growth 42C second temp,GIV Gai3 FP
Cc1ccc(C2C(C#N)=C(N)SC(N)=C2C#N)c(C)c1,52,8.5*
O=C(O)c1cccc(-c2ccc(/C=C3\Sc4ccccc4C3=O)o2)c1,41,-73*

Screens deposited in PubChem BioAssay by ICCB-Longwood Screening Facility, Harvard Medical School.
